Compound activity deposited in PubChem BioAssay by several laboratories.
Sa RN4220 lethal: kills Staphylococcus aureus RN4220; S. aureus RN4220 growth, OD600, 16 h; inhibition, % (concentration not given with the values); actives 0.33% (n = 330,000);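 active = z-score of -3 or lower and OD600 up to 0.18 on both plates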;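 note: plate controls were untreated cells for no effect and reference antibiotic for full effect; stock transfer was 100 nL into about 80 µL; one replicate is shown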
Mtb hypoxia inh: inhibitors of hypoxia-regulated fluorescent reporter in Mycobacterium tuberculosis; M. tuberculosis hypoxia-regulated fluorescent reporter, fluorescence; fluorescence inhibition, % (concentration not given with the values); actives 0.1% (n = 300,000);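 active = 35 to 45% if threefold the growth effect, above 45% if 1.5-fold the growth effect; inactive = the rest, general growth blockers included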;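 note: wells of about 50 µL received 100 nL stock; 0% = vehicle wells and 100% = reference inhibitor wells; whole bacteria with a GFP reporter of the hypoxia response; strong numbers were not always called active; many hits fall short of the cut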
Autofluor counter: compound fluorescence in toxin protease inhibitor counterscreen. actives 3.1% (n = 360,000). compound autofluorescence counterscreen, microsphere flow cytometry; hits give high values. fluorescence intensity (concentration not given with the values);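 active = at least 3 SD above the mean of all compounds, about 16000 in these data; inconclusive = too few beads counted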;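 note: 100 nL of 1 mM stock went into each well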
PrP 5UTR inh: inhibition of PrP 5' UTR reporter expression. cell-based PrP 5' UTR mRNA reporter, plate reader. inhibition, % (test concentration not listed). actives 0.35% (n = 340,000);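 active = every replicate at 50% or more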;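 note: 0 = median of the neutral control wells; tested in H4 reporter cells; numbers are from one replicate; inactives centre near -14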
BJeLR lethal: BJeLR cell viability loss; BJeLR (HRASV12) viability, CellTiter-Glo ATP luminescence, 48 h; reference of the scale not given here; inhibition, % (test concentration not listed); actives 0.17% (n = 300,000);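 active = replicate mean above 50%; inconclusive = above 50% but judged a plate artefact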;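 note: 50 nL library stock added to about 25 µL; numbers are from one replicate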
ugtP null kill: kills S. aureus RN4220 lacking UgtP | growth inhibition, % (concentration not given with the values) | S. aureus RN4220 ugtP deletion, OD600 growth, 16 h; some inactives read as strong as hits | AID 1259309 | actives 0.54% (n = 330,000);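 active = z-score under -3 and OD600 up to 0.15 on both plates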;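 note: plate controls were untreated wells for no effect and antibiotic for full effect; wells of about 80 µL received 100 nL stock; the first replicate is given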
Mtb hypoxia inh growth: second read-out of Mtb hypoxia inh, no call of its own (marks repeat the call); growth inhibition, %; measured here: M. tuberculosis growth (absorbance);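 0% = vehicle and 100% = reference antibiotic; read after six days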
The depositor's hits bear a star; ? = inconclusive; · = no result given.

SMILES | Sa RN4220 lethal | Mtb hypoxia inh | Mtb hypoxia inh growth | Autofluor counter | PrP 5UTR inh | BJeLR lethal | ugtP null kill
Cc1oc(-c2ccc(Cl)cc2)cc1C(=O)NC1CCN(Cc2ccccc2)CC1 | -4.3 | 14 | 13 | 3889 | · | -4 | -2
CC(C)N(Cc1ccccc1)S(=O)(=O)c1cccs1 | -2.0 | 0 | 3 | 3364 | -17 | -5 | 9
Cc1ccc(C(=O)O/N=C/c2ccc(N(C)C)cc2)cc1 | · | · | · | 3866 | -107 | 9 | ·
O=C(CN1C(=O)CCSc2ccc(S(=O)(=O)N3CCOCC3)cc21)Nc1ccccc1Cl | 1.2 | -7 | 0 | 4142 | 5 | 8 | -9
Cc1ccc(S(=O)(=O)/N=C(/Nc2ccc(O)c(C(=O)O)c2)c2ccccc2)cc1 | 10.0 | 8 | 3 | · | -15 | · | 5
C/C(=N\NC(=O)CC#N)c1ccc(Oc2ccccc2)cc1 | · | · | · | 3247 | -3 | 17 | ·
O=C(c1cc2ccccc2o1)N1CC=C(c2ccccc2)CC1 | 11 | 13 | 17 | 4389 | 4 | 0 | -1
CC(C)c1ccccc1NC(=O)C1CCCN(C(=O)c2ccc(Cl)cc2)C1 (stereo unspecified) | 0.2 | 4 | 1 | 5425 | -2 | · | 6
O=C(CN1C(=O)C(=Cc2ccccc2)SC1=S)Nc1cccnc1 | 4.0 | 3 | 12 | · | · | · | -6
C/C=C(\C)C(=O)NCCN1C2=NC[C@@H](Cc3ccccc3)N2C[C@H]1Cc1ccc(O)cc1 | · | · | · | 4186 | -13 | -3 | ·
COc1cc(NC(=O)C2CCN(S(=O)(=O)c3ccc(N4CCCC4=O)cc3)CC2)cc(OC)c1 | 1.0 | -5 | -1 | 6309 | -2 | 6 | 3
O=C(c1cc(F)c(F)cc1Cl)N1CCN(CCc2ccccc2)CC1 | 3.8 | 5 | 9 | 3744 | -10 | -6 | 10
O=C(CN1CCCC1)Nc1ccc(Oc2ccc(NC(=O)CN3CCCC3)cc2)cc1 | 1.5 | 1 | 1 | 4171 | -17 | 1 | -5
Cc1nc2ccc(Br)cc2c2c1CC(CBr)O2 (stereo unspecified) | 11 | 20 | 13 | · | 4 | -13 | 3
O=C1CC[C@H](N2C(=O)c3ccccc3C2=O)C(=O)N1 | · | · | · | 5690 | 0 | -7 | ·
CN(/N=C/c1cc(Cl)ccc1O)C1=NS(=O)(=O)c2ccccc21 | · | · | · | 3120 | -12 | 3 | ·
CC(=O)N(Cc1ccc(F)cc1)C1=C(NCc2ccccc2)C(=O)c2ccccc2C1=O | 40 | · | · | 3264 | -28 | 24 | 27
S=C(NCCc1ccc(Cl)cc1)NCc1ccco1 | -0.1 | 1 | 2 | 3378 | -14 | -2 | -1
CCOCCCNC(C(=O)Nc1ccc(OC)c(Cl)c1)c1ccccc1 (stereo unspecified) | 2.9 | 5 | 9 | 4258 | -19 | -8 | 17
Cc1ccc(C2C3C(=O)N(C)C(=O)C3[C@]3(Cc4ccccc4)C(=O)N(CCO)CC(=O)N23)o1 (stereo partly specified) | 1.3 | -10 | 7 | · | · | · | -1
COc1ccc(-c2cc3n(n2)CCc2nc4ccccc4n2-3)cc1 | 3.4 | 24 | 21 | 5742 | -22 | 5 | -25
O=C(Cc1ccc([N+](=O)[O-])cc1)NN=Cc1cccnc1 | 0.8 | -2 | 20 | · | · | · | 2
CC(Oc1ccc2c3c(c(=O)oc2c1)CCCC3)C(=O)NCCCn1ccnc1 (stereo unspecified) | 2.5 | 7 | 7 | 4621 | -9 | -3 | 2
O=[N+]([O-])c1ccccc1C=NN1CCN(c2ccccn2)CC1 | 2.8 | 2 | 6 | · | · | · | 0
Cc1ccc(-c2csc(N3CCCC3C(=O)NCCn3c(-c4ccncc4)nc4ccccc43)n2)cc1 (stereo unspecified) | 6.9 | -4 | -3 | · | · | · | 12
CCOC(=O)C(CC)(CC)/C(C)=N/NC(=O)CC#N | · | · | · | ? | -22 | 10 | ·
CCOC(=O)c1ccc(NC(=O)c2c(N)n(C)c(=O)[nH]c2=O)cc1 | -12 | 12 | 6 | 4309 | -13 | 4 | -7
CC(C)C(=O)Nc1csc(C(F)(F)F)c1-c1ccccc1 | -2.4 | -1 | 9 | 6003 | -20 | 0 | 3
O=C(Nc1ccccc1Cl)NC1(C(=O)NCC2CCCO2)CCCCC1 (stereo unspecified) | 0.2 | -3 | 0 | 3853 | -8 | 3 | 5
CCN(CC)CCNC(=O)c1c(O)c2cc(OC)c(OC)cc2[nH]c1=O | 5.1 | 6 | 11 | 3609 | 72* | 25 | 2

Structural class, the compounds so far containing four or more nitrogen atoms.
SMILES | Sa RN4220 lethal | Mtb hypoxia inh | Mtb hypoxia inh growth | Autofluor counter | PrP 5UTR inh | BJeLR lethal | ugtP null kill
C/C=C(\C)C(=O)NCCN1C2=NC[C@@H](Cc3ccccc3)N2C[C@H]1Cc1ccc(O)cc1 | · | · | · | 4186 | -13 | -3 | ·
O=C(CN1CCCC1)Nc1ccc(Oc2ccc(NC(=O)CN3CCCC3)cc2)cc1 | 1.5 | 1 | 1 | 4171 | -17 | 1 | -5
COc1ccc(-c2cc3n(n2)CCc2nc4ccccc4n2-3)cc1 | 3.4 | 24 | 21 | 5742 | -22 | 5 | -25
O=C(Cc1ccc([N+](=O)[O-])cc1)NN=Cc1cccnc1 | 0.8 | -2 | 20 | · | · | · | 2
O=[N+]([O-])c1ccccc1C=NN1CCN(c2ccccn2)CC1 | 2.8 | 2 | 6 | · | · | · | 0
Cc1ccc(-c2csc(N3CCCC3C(=O)NCCn3c(-c4ccncc4)nc4ccccc43)n2)cc1 (stereo unspecified) | 6.9 | -4 | -3 | · | · | · | 12
CCOC(=O)c1ccc(NC(=O)c2c(N)n(C)c(=O)[nH]c2=O)cc1 | -12 | 12 | 6 | 4309 | -13 | 4 | -7

(next part)
SMILES | Sa RN4220 lethal | Mtb hypoxia inh | Mtb hypoxia inh growth | Autofluor counter | PrP 5UTR inh | BJeLR lethal | ugtP null kill
CCOc1ccc(-n2nc(C(=O)NCCOC)c3ccccc3c2=O)cc1 | 1.5 | · | · | 2714 | -19 | · | -1
Cc1cc(OC(=O)c2ccc(Cl)cc2Cl)nc(C)n1 | 5.0 | 19 | 16 | 9756 | -11 | -2 | -4
COc1cccc(CC(=O)Nc2cccc3ccccc23)c1 | 7.4 | 14 | 4 | 4543 | -16 | -7 | -13
Cc1ccc(NC(=O)CSc2nnc(Cn3c(=O)sc4ccccc43)n2C)cc1 | 0.4 | · | · | 4376 | -21 | -8 | -3
NC(=O)C1CCCNc2c(F)cc([N+](=O)[O-])cc2C(=O)NC(CO)C(=O)NC(Cc2ccc(O)cc2)C(=O)N1 (stereo unspecified) | 1.4 | 2 | 5 | · | · | · | -6
Cc1ccc(C)c(NC(=O)C2CC(O)CN2C(=O)OC(C)(C)C)c1 (stereo unspecified) | -5.9 | 5 | 16 | 3233 | -10 | -5 | -4
CSCc1ccc(C(=O)NCc2ccccc2)cc1 | -4.9 | -4 | -9 | 2177 | -44 | -15 | 4
COc1ccc(/C=C(\NC(=O)c2ccccc2)C(=O)N2CCC(C)CC2)cc1 | -1.3 | 9 | 6 | 5511 | -4 | · | -4
O=[N+]([O-])c1cccc(NC(=S)N2CCCC2)c1 | 2.1 | 10 | 6 | 5199 | -10 | · | 1
Cc1c(-c2ccccc2)sc2nc[nH]c(=S)c12 | · | · | · | 4683 | -24 | 5 | ·
